# PABP FP inh – PABP poly(A) RNA binding inhibitors, primary screen, biochemical, fluorescence polarization, uHTS; Polyadenylate-binding protein 1 (Homo sapiens), P11940; AID 2014, 2009; inhibition, % at 35 µM; actives 1% (n = 290,000);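 active means 50% or more with normal probe brightness, or confirmed in later tests; about a fifth of its hits are not listed in these tables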;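 further: calls also rest on retests at 20 µM and on dose response follow-up; controls were probe without protein and protein plus probe with vehicle; some compounds called inactive have numbers as strong as hits; many hits fall short of the cut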
# Target sequence (P11940 whole entry, looked up): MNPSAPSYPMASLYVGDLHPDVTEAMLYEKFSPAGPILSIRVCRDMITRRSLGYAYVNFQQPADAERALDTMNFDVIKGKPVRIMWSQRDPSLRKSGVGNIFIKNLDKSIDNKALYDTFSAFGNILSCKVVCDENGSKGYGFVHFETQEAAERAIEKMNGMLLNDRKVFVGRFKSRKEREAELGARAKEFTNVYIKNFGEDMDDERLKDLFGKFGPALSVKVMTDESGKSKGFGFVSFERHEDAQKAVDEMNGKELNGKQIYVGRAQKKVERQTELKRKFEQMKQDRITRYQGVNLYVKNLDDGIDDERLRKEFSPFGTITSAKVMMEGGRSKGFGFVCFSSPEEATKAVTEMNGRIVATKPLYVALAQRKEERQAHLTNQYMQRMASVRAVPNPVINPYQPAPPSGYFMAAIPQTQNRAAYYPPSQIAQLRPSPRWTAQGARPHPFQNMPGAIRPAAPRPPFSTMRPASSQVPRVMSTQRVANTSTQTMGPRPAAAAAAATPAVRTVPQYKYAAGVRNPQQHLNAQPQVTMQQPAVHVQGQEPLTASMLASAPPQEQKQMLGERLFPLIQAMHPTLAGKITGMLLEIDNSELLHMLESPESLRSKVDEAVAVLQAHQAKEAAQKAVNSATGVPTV
# MT1-MMP act inh – blockers of MT1-MMP proenzyme processing, primary screen, HT1080 RFP-PRO-GFP cells, GFP/RFP fluorescence; Matrix metalloproteinase-14 (Homo sapiens), P50281; GFP/RFP ratio fluorescence, overnight; percent of plate control window, DMSO zero; GFP/RFP ratio change, % at 20 µM; actives 0.061% (n = 360,000);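 active means GFP/RFP ratio change of at least 30% with cell ATP level not reduced by more than half and red fluorescence within 50% of control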; further: strong numbers were not always called active
#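 Assay system: HT1080 RFP-PRO-GFP cells | Dosing: 20 µM single dose, 1% DMSO | Incubation: Cells overnight before dosing, compound overnight, 37 °C, 5% CO2 | Evaluation: GFP/RFP fluorescence ratio | Control set: DMSO-only wells and HT1080 RFP-L50D-GFP cell wells as references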
# HIV Env fusion – inhibitors of HIV-1 Env-driven cell-cell fusion, primary screen, HeLa-JRFL effector, CEM21 target cells, luciferase; inhibition, % at 12.3 µM; AID 651610, 2012; actives 1.1% (n = 360,000);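 active means mean replicate inhibition score of at least 50 and every replicate individually at or above 50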;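 further: 0% = plate neutral controls and 100% = maraviroc near 300 nM; one replicate is shown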
# UUG fidelity – modulators of yeast start codon fidelity, primary screen, whole organism, S. cerevisiae, single point, plate reader; S. cerevisiae UUG-firefly luciferase reporter, luminescence/redox ratio; activity score, % at 18.7 µM; actives 0.13% (n = 350,000);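 active means replicate mean at a twofold rise or more, about +100% in these data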;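 further: firefly luciferase made from a UUG start codon reports start codon fidelity; reporter light over untreated wells divided by growth signal over untreated wells; some hits fall short of that in this replicate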
# CSC inhib – cancer stem cell viability inhibitors, primary screen, luminescence; inhibition, % at 7.5 µM; actives 1.1% (n = 300,000); cancer stem cell-like cells viability; AID 2717, 2010;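 active means mean at 75% or more and at least half the replicates too; tested in HMLE shEcad cells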;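 further: 0% = median of negative and 100% = median of positive control wells; the first replicate is given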
# Rce1 inh – yeast Rce1p protease inhibitors, primary screen, biochemical, fluorescence, cell-free homogeneous. CAAX prenyl protease 2 (Saccharomyces cerevisiae (strain ATCC 204508 / S288c)), Q03530. AID 2563, 2010. yeast membranes, quenched prenylated peptide cleavage fluorescence. calls only. actives 0.27% (n = 290,000);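 active means fall in fluorescence gain of 50% or more versus controls, with final raw signal at or below 3038400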;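 further: plate controls were neutral control wells for no effect and wells lacking membranes for full effect; tested at 10 µM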
# eIF4H FP inh – human eIF4H binding inhibitors, primary screen, translation initiation inhibitor project, biochemical, uHTS, fluorescence polarization; Eukaryotic translation initiation factor 4H (Homo sapiens), Q15056; actives 0.94% (n = 290,000); eIF4H fluorescence polarization binding assay; inhibition, % at 35 µM;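 active means 50% or more with normal probe brightness, or confirmed in later tests; about a fifth of its hits are not listed in these tables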;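 further: calls also rest on retests at 20 µM and on dose response follow-up; 0% = protein and probe with vehicle and 100% = probe without protein; strong numbers were not always called active; many hits fall short of the cut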
# MT1-MMP act inh RFP – also measured in MT1-MMP act inh; calls as there; RFP signal change, %; measured here: RFP expression control read;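 0 = vehicle wells; hits needed this value within 50% of zero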
# * marks the source's active call; other numbers are inactive results; i = inactive; . = no result given.
# Codes: A = PABP FP inh; B = MT1-MMP act inh; C = MT1-MMP act inh RFP; D = HIV Env fusion; E = UUG fidelity; F = CSC inhib; G = Rce1 inh; H = eIF4H FP inh
> O=S(=O)(CCc1ccccc1)N1CCOCC1
  A: 3.4; B: 1.0; C: 2.7; D: .; E: -12.2; F: -16.0; G: i; H: -2.6
> CCCN(c1ccc(C)cc1)c1nc(=O)c2cccnc2s1
  A: 71.4*; B: -3.3; C: -2.2; D: 0.0; E: 6.9; F: 55.5; G: i; H: 91.1*
> COc1ccc(CNC(=O)COC(=O)c2cc(-c3cccs3)nc3ccccc23)cc1OC
  A: -0.9; B: 6.3; C: 1.4; D: 16.1; E: -17.6; F: 7.4; G: .; H: 1.0
> O=S(=O)(Nc1cccc(-c2ccc3nncn3n2)c1)c1cccs1
  A: -11.6; B: 3.4; C: 7.5; D: -4.2; E: .; F: .; G: i; H: 1.5
> Cc1ccc(NS(=O)(=O)c2cc3c(cc2Br)NC(=O)CO3)cc1C
  A: .; B: -2.1; C: -8.8; D: -13.5; E: -0.6; F: .; G: .; H: .
> COc1cc(NC(=O)CCN2CCOCC2)cc(OC)c1
  A: -5.7; B: 4.4; C: -0.5; D: 1.7; E: 2.9; F: -12.5; G: i; H: 1.7
> CN(Cc1c(F)cccc1Cl)c1ccc(S(=O)(=O)N2CCOCC2)cn1
  A: 0.8; B: -1.3; C: 1.4; D: 1.6; E: -8.3; F: 2.5; G: i; H: 0.9
> CCN1C(=NCCOC)N[C@@H](c2cccs2)C(C(=O)OC)=C1C
  A: 46.6; B: -1.8; C: 3.8; D: 1.5; E: -3.0; F: -0.6; G: i; H: 2.4
> Cc1onc(-c2ccccc2Cl)c1C(=O)Nc1nc2c(s1)CCCC2
  A: 4.4; B: -11.2; C: -7.2; D: .; E: -8.6; F: 1.3; G: i; H: 0.7
> CCSc1ncc(Cl)c(C(=O)Nc2ccccc2F)n1
  A: 0.7; B: -4.5; C: 0.8; D: 4.1; E: -21.0; F: -0.8; G: i; H: -7.1
> CCCCc1nc2cc(C(=O)N3CCCCC3CCO)ccc2o1 (centres undefined)
  A: -6.1; B: -2.5; C: 3.3; D: 21.8; E: -12.8; F: -2.7; G: i; H: -1.1
> Cc1cccc(NC(=O)N2CCCC2C(=O)NCc2ccccc2)c1 (centres undefined)
  A: -6.9; B: -1.7; C: 0.6; D: -7.9; E: -0.6; F: -3.5; G: i; H: -0.9
> Cc1sc2nc(C3CC3)nc(SCC(=O)N3CCc4ccccc4C3)c2c1C
  A: 9.0; B: -7.3; C: 0.1; D: 55.1*; E: -10.6; F: 21.0; G: i; H: 7.0
> COc1ccc(/C(N)=N/OC(=O)COc2ccccc2Cl)cc1
  A: 4.3; B: -2.2; C: 0.9; D: -26.1; E: -0.6; F: 20.1; G: i; H: -8.7
> COc1ccc(C2=NN(C(=S)Nc3ccccc3)C(c3ccccc3)C2)cc1 (centres undefined)
  A: 1.0; B: -1.3; C: -3.9; D: -23.6; E: .; F: 3.9; G: i; H: -17.1
> O=C(CCSc1nnc(-c2ccc(O)cc2)o1)N1CCOCC1
  A: -15.6; B: -1.1; C: -1.2; D: 6.2; E: .; F: -11.2; G: i; H: 6.4
> COc1ccc(NC(=O)Cc2ccsc2)cc1S(=O)(=O)N1CCCCC1
  A: .; B: 8.1; C: 6.2; D: 1.2; E: 1.5; F: 2.5; G: .; H: .
> CSc1ccc(CCNC(=O)CS(=O)(=O)Cc2nc(-c3ccccc3F)oc2C)cc1
  A: 10.8; B: 1.3; C: -3.7; D: 5.3; E: -6.2; F: -3.4; G: i; H: 8.3
> O=C(Nc1nnc(SCc2ccccn2)s1)C1CC(=O)N(c2ccc(F)cc2)C1 (centres undefined)
  A: 6.7; B: -3.3; C: 1.3; D: 7.8; E: -6.6; F: -6.9; G: i; H: 2.7
> Cc1ccc(S(=O)(=O)N2CCN(C(=O)c3cc(S(=O)(=O)N4CCOCC4)c(Cl)cc3Cl)CC2)cc1
  A: .; B: -1.0; C: -7.8; D: 1.4; E: 7.7; F: .; G: .; H: .
> Cc1cc(N2CCCC2=O)ccc1S(=O)(=O)Nc1c(C)nn(C)c1C
  A: -12.7; B: -0.2; C: -13.8; D: 14.0; E: -6.7; F: -16.2; G: i; H: -4.2
> Cc1cccc(C)c1NC(=O)COC(=O)c1ccc([N+](=O)[O-])o1
  A: -9.3; B: 0.6; C: -0.5; D: -5.7; E: .; F: -5.7; G: .; H: -0.7
> CC(=O)NC(CC(=O)NNC(=O)C(C)Oc1ccccc1F)c1ccccc1 (centres undefined)
  A: .; B: -2.3; C: -1.1; D: 29.0; E: .; F: -8.2; G: i; H: .
> O=C(Nc1ccccc1)c1ccc(NC(=O)C2CC2)cc1
  A: 9.6; B: 3.4; C: 0.8; D: -86.8; E: 7.7; F: 1.3; G: i; H: 4.8
> O=S(=O)(c1ccc(F)cc1)N1CCN(C(=S)NCc2ccccc2)CC1
  A: 8.9; B: 8.6; C: 7.0; D: 17.2; E: .; F: .; G: i; H: -5.0
> O=C(NNC(=O)c1ccncc1)Nc1ccccc1
  A: 4.3; B: 3.1; C: 7.0; D: -0.5; E: -7.8; F: -8.4; G: .; H: 2.9
> CCN(C[C@H]1N[C@@](CC)(C(=O)OC)[C@H]2C(=O)N(Cc3ccccc3)C(=O)[C@@H]12)C(=O)c1ccc(C)cc1
  A: .; B: 1.9; C: 4.3; D: 51.6; E: -10.7; F: .; G: .; H: .
> CSCSC1=C(C#N)C(c2ccc(Cl)cc2)C(C(C)=O)=C(C)N1 (centres undefined)
  A: 5.9; B: .; C: .; D: .; E: .; F: 9.4; G: .; H: 3.2
> COc1ccccc1NC(=O)CC(=O)c1cccc([N+](=O)[O-])c1
  A: 8.6; B: -1.3; C: 1.0; D: -17.6; E: -3.6; F: -10.2; G: i; H: -4.8
> Cc1c(C(=O)Nc2ccc(F)cc2)cn2c(nc3ccccc32)c1C#N
  A: -2.2; B: -2.4; C: 0.0; D: -6.1; E: -18.3; F: 6.7; G: i; H: 18.5
> N#Cc1c2c(c[nH]c1=O)CCN2Cc1ccccc1
  A: -0.4; B: 1.3; C: 1.8; D: .; E: 10.7; F: -12.7; G: i; H: 7.9
> CN(c1ccc(F)cc1)S(=O)(=O)c1ccc(Cl)c(C(=O)NCC(c2ccco2)N2CCCCC2)c1 (centres undefined)
  A: .; B: -4.8; C: -11.5; D: 3.3; E: 10.1; F: .; G: .; H: .
> O=C(NCCOc1ccccc1)C1CCC(=O)N(CCN2CCOCC2)C1 (centres undefined)
  A: 1.8; B: -1.5; C: 1.6; D: 0.5; E: -3.0; F: -0.2; G: i; H: -9.5
> COc1ccc(OC)c(NC(=O)COC(=O)c2ccc(S(=O)(=O)N3CCOCC3)cc2)c1
  A: -3.3; B: 0.8; C: 2.1; D: .; E: -11.4; F: -3.1; G: i; H: -7.1

# Already shown: 12 of the compounds above.
# Codes: A = PABP FP inh; B = MT1-MMP act inh; C = MT1-MMP act inh RFP; D = HIV Env fusion; E = UUG fidelity; F = CSC inhib; G = Rce1 inh; H = eIF4H FP inh
> Cc1cccc(C)c1NC(=O)COC(=O)c1ccc([N+](=O)[O-])o1
  A: -9.3; B: 0.6; C: -0.5; D: -5.7; E: .; F: -5.7; G: .; H: -0.7
> CC(=O)NC(CC(=O)NNC(=O)C(C)Oc1ccccc1F)c1ccccc1 (centres undefined)
  A: .; B: -2.3; C: -1.1; D: 29.0; E: .; F: -8.2; G: i; H: .
> O=C(Nc1ccccc1)c1ccc(NC(=O)C2CC2)cc1
  A: 9.6; B: 3.4; C: 0.8; D: -86.8; E: 7.7; F: 1.3; G: i; H: 4.8
> O=S(=O)(c1ccc(F)cc1)N1CCN(C(=S)NCc2ccccc2)CC1
  A: 8.9; B: 8.6; C: 7.0; D: 17.2; E: .; F: .; G: i; H: -5.0
> O=C(NNC(=O)c1ccncc1)Nc1ccccc1
  A: 4.3; B: 3.1; C: 7.0; D: -0.5; E: -7.8; F: -8.4; G: .; H: 2.9
> CCN(C[C@H]1N[C@@](CC)(C(=O)OC)[C@H]2C(=O)N(Cc3ccccc3)C(=O)[C@@H]12)C(=O)c1ccc(C)cc1
  A: .; B: 1.9; C: 4.3; D: 51.6; E: -10.7; F: .; G: .; H: .
> CSCSC1=C(C#N)C(c2ccc(Cl)cc2)C(C(C)=O)=C(C)N1 (centres undefined)
  A: 5.9; B: .; C: .; D: .; E: .; F: 9.4; G: .; H: 3.2
> COc1ccccc1NC(=O)CC(=O)c1cccc([N+](=O)[O-])c1
  A: 8.6; B: -1.3; C: 1.0; D: -17.6; E: -3.6; F: -10.2; G: i; H: -4.8
> Cc1c(C(=O)Nc2ccc(F)cc2)cn2c(nc3ccccc32)c1C#N
  A: -2.2; B: -2.4; C: 0.0; D: -6.1; E: -18.3; F: 6.7; G: i; H: 18.5
> N#Cc1c2c(c[nH]c1=O)CCN2Cc1ccccc1
  A: -0.4; B: 1.3; C: 1.8; D: .; E: 10.7; F: -12.7; G: i; H: 7.9
> CN(c1ccc(F)cc1)S(=O)(=O)c1ccc(Cl)c(C(=O)NCC(c2ccco2)N2CCCCC2)c1 (centres undefined)
  A: .; B: -4.8; C: -11.5; D: 3.3; E: 10.1; F: .; G: .; H: .
> O=C(NCCOc1ccccc1)C1CCC(=O)N(CCN2CCOCC2)C1 (centres undefined)
  A: 1.8; B: -1.5; C: 1.6; D: 0.5; E: -3.0; F: -0.2; G: i; H: -9.5
